# Bioassay records from PubChem BioAssay.
# FGF22 binding – binders of human FGF22 protein, primary screen, FGF22 synaptogenesis inhibitor project, biophysical, thermal shift, single point; Fibroblast growth factor 22 (Homo sapiens), Q9HCT0; AID 651658, 2012; actives 1.5% (n = 340,000); calls only at 9.99 µM; recombinant FGF22 thermal shift, SYPRO orange fluorescence; percent of sucrose octasulfate shift, DMSO zero;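 active = melting point raised past a set limit in the mean and every replicate; three in four hits are not shown here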
# Target sequence (Q9HCT0 whole entry, looked up): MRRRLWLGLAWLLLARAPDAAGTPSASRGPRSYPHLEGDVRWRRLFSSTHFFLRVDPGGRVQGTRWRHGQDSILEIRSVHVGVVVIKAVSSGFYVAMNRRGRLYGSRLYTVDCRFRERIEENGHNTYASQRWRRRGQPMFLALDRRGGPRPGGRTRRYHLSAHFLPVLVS
# AF4-AF9 inh – inhibitors of AF4 peptide binding to AF9, primary screen, biochemical, AlphaScreen, biotin-AF4 peptide, FLAG-AF9, single point | Protein AF-9 (Homo sapiens), P42568 | actives 0.47% (n = 350,000) | inhibition, % at 10 µM | AID 651704, 2012;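 active = every replicate reaching a set inhibition limit, whatever the replicate mean, cut at about 25% in these data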;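 also: 0% = plate neutral control median and 100% = total signal loss; the record names both 10 and 1 µM as test concentration; the first replicate is given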
# Target sequence (P42568 whole entry, looked up): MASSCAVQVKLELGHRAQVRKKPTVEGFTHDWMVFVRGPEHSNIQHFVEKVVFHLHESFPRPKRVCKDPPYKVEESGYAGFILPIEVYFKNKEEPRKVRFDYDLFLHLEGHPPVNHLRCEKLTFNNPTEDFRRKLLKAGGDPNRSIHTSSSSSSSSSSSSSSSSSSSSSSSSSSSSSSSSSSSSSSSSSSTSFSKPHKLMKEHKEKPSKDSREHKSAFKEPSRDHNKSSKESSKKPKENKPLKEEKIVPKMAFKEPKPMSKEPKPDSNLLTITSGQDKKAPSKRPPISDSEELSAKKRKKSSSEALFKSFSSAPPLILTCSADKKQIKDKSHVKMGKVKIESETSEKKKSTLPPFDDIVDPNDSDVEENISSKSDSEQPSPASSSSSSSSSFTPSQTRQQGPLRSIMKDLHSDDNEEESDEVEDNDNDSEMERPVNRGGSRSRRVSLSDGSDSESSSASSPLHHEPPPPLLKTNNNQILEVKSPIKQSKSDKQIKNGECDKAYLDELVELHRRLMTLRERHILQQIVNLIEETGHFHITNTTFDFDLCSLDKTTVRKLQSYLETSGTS
# * = called active by the depositor; i = inactive; + = active, no number. Not all compounds are listed, so the mix of outcomes need not match the whole.
# The line under a structure holds: FGF22 binding | AF4-AF9 inh
C[C@@H]1CN([C@H](C)CO)S(=O)(=O)c2ccc(C3=CCCCC3)cc2O[C@H]1CN(C)C(=O)C1CCCCC1
    i | 13.5
Cc1noc(C)c1NC(=O)Nc1cccc2c1O[C@H](CN(C)S(=O)(=O)c1ccc(F)cc1)[C@H](C)CN([C@H](C)CO)C2=O
    i | -1.4
C[C@@H]1CN([C@H](C)CO)C(=O)Cc2cc(NC(=O)Nc3ccc(C(F)(F)F)cc3)ccc2O[C@@H]1CN(C)Cc1ccncc1
    i | 1.1
C[C@H](CO)N1C[C@H](C)[C@H](CN(C)Cc2ccc(F)cc2)Oc2ncc(-c3cccc(F)c3)cc2C1=O
    i | 0.3
C[C@@H]1CN([C@H](C)CO)C(=O)c2cc(C3=CCCCC3)cnc2O[C@H]1CN(C)S(=O)(=O)c1cn(C)cn1
    i | -3.1
C[C@@H]1CCCCO[C@@H](CN(C)C(=O)Cc2ccccc2)[C@@H](C)CN([C@H](C)CO)C(=O)c2cc(NC(=O)c3ccncc3)ccc2O1
    i | -1.8
COc1ccccc1NC(=O)N[C@H]1C=C[C@H](CC(=O)N2CCC(Cc3ccccc3)CC2)O[C@H]1CO
    i | -0.8
C[C@@H]1CN([C@@H](C)CO)C(=O)c2cccc(NC(=O)c3cnccn3)c2O[C@H]1CN(C)C
    i | -3.4
O=C(Nc1ccccc1)N1CCCCN2[C@H](CO)[C@H](c3ccc(Br)cc3)[C@@H]2C1
    i | -5.4
COc1ccc(S(=O)(=O)Nc2ccc3c(c2)C(=O)N([C@H](C)CO)C[C@@H](C)[C@@H](CN(C)C(=O)Cc2ccccc2)OCCCC[C@@H](C)O3)cc1
    i | 0.5
C[C@@H]1CN([C@H](C)CO)C(=O)Cc2cc(NC(=O)CCCCCC(=O)Nc3ccccc3N)ccc2O[C@H]1CN(C)C
    i | 1.9
C[C@H](CO)N1C[C@H](C)[C@H](CN(C)Cc2ccncc2)Oc2c(NC(=O)C3CCCCC3)cccc2C1=O
    i | 0.4
COc1ccccc1NC(=O)N1CCCCN2[C@@H](CO)[C@@H](c3ccc(-c4cccc(F)c4)cc3)[C@@H]2C1
    i | 4.9
COCC(=O)N(C)C[C@@H]1Oc2cc(-c3ccc(OC)cc3)ccc2S(=O)(=O)N([C@H](C)CO)C[C@@H]1C
    i | -0.2
CN(C)c1ccc2c(c1)[C@H]1C[C@@H](CC(=O)NCC3CC3)O[C@@H](CO)[C@H]1O2
    i | -17.5
O=C1CSC(c2cccs2)N1c1nncs1 (stereo not given)
    i | -2.8
C[C@@H]1CN([C@@H](C)CO)C(=O)c2cc(C#CC3CCCCC3)cnc2O[C@@H]1CN(C)C(=O)Nc1ccccc1
    i | 4.0
C[C@H]1CN([C@@H](C)CO)C(=O)c2cc(C#Cc3cccnc3)cnc2O[C@@H]1CN(C)Cc1ccc(F)cc1
    i | 1.0
O=C(C[C@H]1CC[C@H](NC(=O)Nc2cc(F)ccc2F)[C@@H](CO)O1)NCc1ccc2c(c1)OCO2
    i | -21.3
COc1ccc(NC(=O)Nc2ccc3c(c2)C(=O)N([C@@H](C)CO)C[C@@H](C)[C@@H](CN(C)Cc2ccc4c(c2)OCO4)OCCCC[C@@H](C)O3)cc1
    i | 22.0

# Given with each value named: entries from further up
C[C@@H]1CN([C@H](C)CO)C(=O)Cc2cc(NC(=O)CCCCCC(=O)Nc3ccccc3N)ccc2O[C@H]1CN(C)C
  FGF22 binding: i	AF4-AF9 inh: 1.9
C[C@@H]1CN([C@@H](C)CO)C(=O)c2cc(C#CC3CCCCC3)cnc2O[C@@H]1CN(C)C(=O)Nc1ccccc1
  FGF22 binding: i	AF4-AF9 inh: 4.0
COc1ccccc1NC(=O)N[C@H]1C=C[C@H](CC(=O)N2CCC(Cc3ccccc3)CC2)O[C@H]1CO
  FGF22 binding: i	AF4-AF9 inh: -0.8

# Going on with the list.
# The line under a structure holds: FGF22 binding | AF4-AF9 inh
C[C@H](CO)N1C[C@H](C)[C@@H](CN(C)Cc2ccc(C(F)(F)F)cc2)Oc2ccc(NC(=O)Cc3cn(C)c4ccccc34)cc2CC1=O
    i | -4.4
COc1cccc(NC(=O)N(C)C[C@@H]2Oc3cc(C#Cc4ccccc4)ccc3S(=O)(=O)N([C@H](C)CO)C[C@@H]2C)c1
    i | -1.9
C[C@H]1CN([C@@H](C)CO)C(=O)c2ccccc2-c2ccccc2CO[C@H]1CN(C)C(=O)Nc1ccccc1C(F)(F)F
    i | -1.9
CC(C)NC(=O)N(C)C[C@H]1Oc2ccc(NC(=O)CCCN(C)C)cc2C(=O)N([C@H](C)CO)C[C@@H]1C
    i | -1.1
CCN1[C@@H]2Cn3c(ccc(C4=CCCC4)c3=O)[C@H]1[C@@H](C(=O)N[C@@H](C)c1ccccc1)[C@@H]2CO
    i | 2.6
COc1ccc(S(=O)(=O)Nc2ccc3c(c2)C(=O)N([C@H](C)CO)C[C@@H](C)[C@@H](CN(C)C(=O)NC2CCCCC2)O3)cc1
    i | -3.1
C[C@H]1CN([C@@H](C)CO)C(=O)c2cc(NC(=O)Cc3cn(C)c4ccccc34)ccc2O[C@H]1CN(C)Cc1ccc(Oc2ccccc2)cc1
    i | 1.9
COC(=O)C1=C(C)N(Cc2ccc(C(F)(F)F)cc2)C(=NCc2ccccc2)NC1c1ccc(C(F)(F)F)cc1 (stereo not given)
    i | 8.6
CCCNC(=O)N1[C@@H](C#N)[C@@H](c2ccccc2)[C@@H]1CO
    i | -3.3
C[C@@H]1CN([C@H](C)CO)C(=O)c2cc(NC(=O)CCC(F)(F)F)ccc2O[C@@H]1CN(C)S(=O)(=O)c1cn(C)cn1
    i | -6.6
COc1ccc(S(=O)(=O)N(C)C[C@@H]2Oc3ccc(NC(=O)C4CCCCC4)cc3C(=O)N([C@H](C)CO)C[C@H]2C)cc1
    i | -4.4
C[C@H]1CN([C@@H](C)CO)C(=O)c2cc(NS(=O)(=O)c3ccc(F)cc3)ccc2O[C@H]1CN(C)C(=O)Nc1cccc2ccccc12
    i | -3.7
C[C@@H]1CN([C@@H](C)CO)C(=O)c2cc(NS(=O)(=O)c3cccs3)ccc2O[C@H]1CN(C)Cc1ccc2c(c1)OCO2
    i | 0.8
C[C@H]1CN([C@@H](C)CO)C(=O)Cc2cc(NC(=O)C3CC3)ccc2O[C@H]1CN(C)S(=O)(=O)c1cn(C)cn1
    i | -2.2
O=C(NCc1ccccc1)[C@H]1CCCN1C(=O)[C@H]1CCCN1C(=O)c1cccc2ccccc12
    i | -1.5
Cc1noc(C)c1S(=O)(=O)Nc1ccc2c(c1)C(=O)N([C@H](C)CO)C[C@@H](C)[C@@H](CN(C)S(=O)(=O)c1cn(C)cn1)OCCCC[C@@H](C)O2
    i | -2.7
CN1C(=O)c2cc(NC(=O)C3CC3)ccc2OC[C@@H]2O[C@H](CC(=O)NC3CCC3)CC[C@H]21
    i | -1.6
COCC(=O)Nc1ccc2c(c1)[C@@H]1C[C@@H](CC(=O)NCc3ccccc3)O[C@H](CO)[C@@H]1O2
    i | -1.5
Cc1noc(C)c1S(=O)(=O)Nc1cccc2c1O[C@@H](CN(C)CC1CC1)[C@@H](C)CN([C@H](C)CO)C2=O
    i | -4.6
C[C@H]1CN([C@@H](C)CO)S(=O)(=O)c2ccc(-c3ccccc3)cc2O[C@H]1CN(C)C(=O)CN(C)C
    i | 6.1

# A stretch from further up, as a working copy:
# The line under a structure holds: FGF22 binding | AF4-AF9 inh
C[C@H](CO)N1C[C@H](C)[C@@H](CN(C)Cc2ccc(C(F)(F)F)cc2)Oc2ccc(NC(=O)Cc3cn(C)c4ccccc34)cc2CC1=O
    i | -4.4
COc1cccc(NC(=O)N(C)C[C@@H]2Oc3cc(C#Cc4ccccc4)ccc3S(=O)(=O)N([C@H](C)CO)C[C@@H]2C)c1
    i | -1.9

# The list goes on:
# The line under a structure holds: FGF22 binding | AF4-AF9 inh
CCCCc1c(-c2ccccc2OC)ncn1Cc1c(F)cccc1F
    i | 7.6
O=C(C[C@@H]1C=C[C@@H](NC(=O)Nc2ccc(F)cc2)[C@H](CO)O1)NCc1cccc(F)c1
    i | -2.3
C[C@@H]1CCCCO[C@H](CN(C)S(=O)(=O)c2ccccc2)[C@@H](C)CN([C@@H](C)CO)C(=O)c2cc(NC(=O)Nc3ccccc3)ccc2O1
    i | -0.4
C[C@@H]1CN([C@H](C)CO)S(=O)(=O)c2ccc(/C=C/c3ccccc3)cc2O[C@@H]1CN(C)Cc1ccc(C(=O)O)cc1
    i | 8.5
C[C@@H]1CN([C@H](C)CO)C(=O)c2cc(NC(=O)Cn3cnnn3)ccc2O[C@H]1CN(C)S(=O)(=O)c1ccc(Cl)cc1
    i | -13.0
OC[C@@H]1[C@@H](c2ccc(C#Cc3ccccc3)cc2)[C@@H]2CN(Cc3cncnc3)CCCCN12
    i | 4.5
C[C@H]1CN([C@@H](C)CO)C(=O)c2cc(C#CCN(C)C)cnc2O[C@@H]1CN(C)S(C)(=O)=O
    i | -3.4
COc1ccc(-c2cnc3c(c2)C(=O)N([C@@H](C)CO)C[C@H](C)[C@H](CN(C)C(=O)NC2CCCC2)O3)cc1
    i | -2.6
C[C@@H]1CN([C@@H](C)CO)C(=O)CCCn2cc(nn2)CO[C@H]1CN(C)Cc1ccc(C(=O)Nc2ccccc2N)cc1
    i | 6.4
COCCNC(=O)C[C@@H]1CC[C@H]2[C@@H](COc3ccc(NC(=O)C4CCCC4)cc3C(=O)N2C)O1
    i | 0.4
CNC[C@@H]1OCCCC[C@H](C)Oc2ccc(NC(=O)c3ccncc3)cc2C(=O)N([C@H](C)CO)C[C@@H]1C
    i | 1.9
C[C@H]1CN([C@@H](C)CO)C(=O)c2cccc(NC(=O)Nc3ccc4c(c3)OCO4)c2O[C@H]1CN(C)C(=O)Nc1cccc2ccccc12
    i | 4.6
C[C@@H]1CN([C@@H](C)CO)C(=O)Cc2cc(NC(=O)C3CCCCC3)ccc2O[C@@H]1CN(C)Cc1ccc(C(=O)Nc2ccccc2N)cc1
    i | -3.8
C[C@H](CO)N1C[C@H](C)[C@H](CN(C)Cc2cncnc2)Oc2ncc(C#Cc3ccccn3)cc2C1=O
    i | -3.2
O=C(C[C@H]1CC[C@H]2[C@@H](COC[C@@H](O)CN2C(=O)c2cnccn2)O1)NCc1ccc(Cl)cc1
    i | -4.7
COc1ccc2c3c(n(C)c2c1)[C@H](CO)N(Cc1ccc(Cl)cc1)CC31CN(CC2CC2)C1
    i | -0.8
C[C@@H]1CN([C@H](C)CO)C(=O)c2cccc(NC(=O)c3ccc(-c4nccs4)cc3)c2O[C@@H]1CN(C)Cc1ccc(-c2ccccc2)cc1
    i | 4.0
CCOC(=O)N1CCN(C(=O)C[C@H]2C[C@@]3(C(=O)OC)C(=C[C@H](C(C)C)O[C@@H]3C3CC3)N(Cc3ccccc3)C2=O)CC1
    i | -1.4
CNC[C@H]1Oc2ncc(Br)cc2C(=O)N([C@H](C)CO)C[C@H]1C
    i | -1.4
CCCN1[C@@H]2c3ccc(-c4ccccc4)c(=O)n3C[C@@H]2[C@@H](CO)[C@@H]1C(=O)NCC1CC1
    i | -3.1

# Remaining list, next part:
Compound	FGF22 binding	AF4-AF9 inh
CN(C)CCCNC(=O)[C@H]1[C@H](CO)[C@H]2Cn3c(ccc(-c4ccncc4)c3=O)[C@@H]1N2C(=O)C1CC1	i	-2.1
Cc1ccc(S(=O)(=O)N(C)C[C@H]2Oc3ccc(NC(=O)Nc4ccc(F)cc4)cc3C(=O)N([C@@H](C)CO)C[C@@H]2C)cc1	i	2.1
CC(=O)N1[C@@H](CO)[C@@H]2c3ccccc3N(C(=O)Nc3cc(F)ccc3F)C[C@@H]21	i	-1.4
C[C@H]1CN([C@@H](C)CO)C(=O)c2cc(NC(=O)CCC(F)(F)F)ccc2O[C@H]1CN(C)CC1CC1	+	-5.8
C[C@H](CO)N1C[C@H](C)[C@H](CN(C)Cc2ccncc2)Oc2ncccc2C1=O	i	-5.7
Oc1ccccc1C=NC(N=Cc1ccccc1O)c1ccccc1O (stereo not given)	i	4.2
COc1ccccc1-c1cn(CC[C@@H]2CC[C@@H](NC(=O)C3CCCCC3)[C@@H](CO)O2)nn1	i	0.1
COc1cccc(C(=O)Nc2ccc3c(c2)C(=O)N(C)C[C@H](OC)[C@H](C)CN[C@H](C)CO3)c1	i	-2.4
CCCNC(=O)N[C@H]1CC[C@H](CC(=O)NCCc2ccccc2)O[C@@H]1CO	i	-2.6
CN(C)C(=O)C[C@H]1C=C[C@@H](NC(=O)C2CC2)[C@@H](CO)O1	i	2.0
CC(C)NC(=O)Nc1ccc2c(c1)C(=O)N([C@@H](C)CO)C[C@@H](C)[C@@H](CN(C)C(=O)Nc1cccc3ccccc13)O2	i	-2.1
O=C(C[C@H]1C=C[C@H](NC(=O)Nc2ccc(C(F)(F)F)cc2)[C@H](CO)O1)NCc1cccc(F)c1	i	-2.7
Cn1cnc(S(=O)(=O)N2C[C@H](O)COC[C@@H]3O[C@H](CC(=O)N4CCN(c5ccccc5)CC4)CC[C@H]32)c1	i	-1.9
COc1ccc(NC(=O)Nc2ccc3c(c2)[C@H]2C[C@H](CC(=O)NCCc4ccccc4)O[C@H](CO)[C@H]2O3)cc1	i	-4.9
C[C@@H]1CN([C@@H](C)CO)S(=O)(=O)c2ccc(C#Cc3ccncc3)cc2O[C@@H]1CN(C)C(=O)C1CCCCC1	i	3.2
C[C@H](CO)N1C[C@H](C)[C@@H](CN(C)C(=O)Nc2ccc(F)cc2)Oc2ncc(C3=CCCCC3)cc2C1=O	i	1.0
